Assay outcomes (PubChem)
VDR inh: Inhibitors of the vitamin D receptor (VDR): qHTS; VDR-SRC2-3 peptide fluorescence polarization, 2 h; AID 504847, 2011; Potency, µM, for the others: max response, negative = inhibition, hits mostly inhibitors; 400,000 compounds, 0.93% hits; Vitamin D3 receptor (Homo sapiens), P11473; active means well fitted inhibition curve with a large enough effect; inconclusive means small, poorly fitted or top-dose-only effect, or another doubt; inactive means no such curve, though single readings can be large or run the other way; further: series mostly up to about 120 µM
Target sequence (P11473 whole entry, looked up): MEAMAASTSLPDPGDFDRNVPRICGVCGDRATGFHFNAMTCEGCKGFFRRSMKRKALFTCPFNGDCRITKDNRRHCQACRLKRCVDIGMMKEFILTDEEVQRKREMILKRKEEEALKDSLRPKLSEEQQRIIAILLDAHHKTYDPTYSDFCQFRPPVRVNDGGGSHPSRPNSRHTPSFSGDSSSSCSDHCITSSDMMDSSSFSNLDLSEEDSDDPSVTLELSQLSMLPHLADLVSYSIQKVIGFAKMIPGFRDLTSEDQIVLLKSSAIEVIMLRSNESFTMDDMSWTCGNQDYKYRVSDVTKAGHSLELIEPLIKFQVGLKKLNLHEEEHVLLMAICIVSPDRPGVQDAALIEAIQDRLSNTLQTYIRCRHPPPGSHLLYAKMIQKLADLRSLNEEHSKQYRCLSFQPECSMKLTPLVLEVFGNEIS
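Compounds are added to VDR with labelled SRC2-3 coactivator peptide and held 2 h at room temperature. Inhibition of the VDR–peptide interaction is then read as a change in fluorescence polarization.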
Active calls of the source: *; ? = inconclusive; & = joins results of further samples; [ ] = dose if it differs, or a comment. On the % scale 0 is the no-effect control and ±100 the full control effect; potency means the concentration at half of the fitted maximal effect. Not all compounds are listed (hit frequency here may not be typical).

Preview, 15 compounds:
SMILES | VDR inh
c1ccc(-c2nc(C3CCCCC3)c3ccccc3n2)cc1 | -9%
Cc1ccc(S(=O)(=O)N(CC(=O)Nc2ccc(Cl)c([N+](=O)[O-])c2)C2CCCCC2)cc1 | -5%
O=C(O)c1ccc2c(=O)n3c(nc2c1)/C(=C/c1cccc(Cl)c1Cl)CCCC3 | -11%
COc1ccc2c(=O)c(-c3ccccc3)coc2c1 | 9%&9%
CCc1ccc(OCCNC(=O)c2ccco2)cc1 | -5%
COc1ccc(CN(C)C(=O)CNC(=O)CNC(=O)c2ccc(Cl)cc2Cl)cc1F | 17%
N#CC[C@H](c1ccccc1)N1CCN(Cc2ccccc2)CCC1=O | -4%
O=C1NC(=Nc2cccc(Cl)c2)SC1Cc1cccc(Cl)c1Cl (centres undefined) | 8%
COc1cc2ccccc2cc1C(=O)NC(=S)Nc1nnn(C)n1 | -8%
CCN1CCN(c2c(S(=O)(=O)c3ccc(Cl)cc3)cnc3ccccc23)CC1 | 4%
CCOC(=O)c1ccccc1NC(=O)CSc1nccn1C | 1%
Cc1c(OCC(F)(F)F)ccnc1CSc1nc2ccccc2[nH]1 | 16%
Cn1c2ccccc2c2nnc(SCC(=O)NC3CCCC3)nc21 | 6%
Cc1ccc(-c2nc(CSCC(=O)NCC3CCCO3)c(C)o2)cc1 (centres undefined) | -14%
O=C(Cn1cnc2ccccc21)Nc1ccc(C(=O)O)cc1 | 18%

The whole of this part, repeating the preview:
SMILES | VDR inh
c1ccc(-c2nc(C3CCCCC3)c3ccccc3n2)cc1 | -9%
Cc1ccc(S(=O)(=O)N(CC(=O)Nc2ccc(Cl)c([N+](=O)[O-])c2)C2CCCCC2)cc1 | -5%
O=C(O)c1ccc2c(=O)n3c(nc2c1)/C(=C/c1cccc(Cl)c1Cl)CCCC3 | -11%
COc1ccc2c(=O)c(-c3ccccc3)coc2c1 | 9%&9%
CCc1ccc(OCCNC(=O)c2ccco2)cc1 | -5%
COc1ccc(CN(C)C(=O)CNC(=O)CNC(=O)c2ccc(Cl)cc2Cl)cc1F | 17%
N#CC[C@H](c1ccccc1)N1CCN(Cc2ccccc2)CCC1=O | -4%
O=C1NC(=Nc2cccc(Cl)c2)SC1Cc1cccc(Cl)c1Cl (centres undefined) | 8%
COc1cc2ccccc2cc1C(=O)NC(=S)Nc1nnn(C)n1 | -8%
CCN1CCN(c2c(S(=O)(=O)c3ccc(Cl)cc3)cnc3ccccc23)CC1 | 4%
CCOC(=O)c1ccccc1NC(=O)CSc1nccn1C | 1%
Cc1c(OCC(F)(F)F)ccnc1CSc1nc2ccccc2[nH]1 | 16%
Cn1c2ccccc2c2nnc(SCC(=O)NC3CCCC3)nc21 | 6%
Cc1ccc(-c2nc(CSCC(=O)NCC3CCCO3)c(C)o2)cc1 (centres undefined) | -14%
O=C(Cn1cnc2ccccc21)Nc1ccc(C(=O)O)cc1 | 18%
COc1ccc(-c2nc3cc(C)ccn3c2NC(=O)c2ccc(C)c(C)c2)cc1 | 8%
CCCC(=O)Nc1ccc2c(c1)COC2=O | -9%
C[C@H](NC(=O)c1ccccc1Cl)C(=O)OCCOc1cccc(Cl)c1 | 4%
CC(=O)N1CCN(c2ccc(S(=O)(=O)NCCN(C(C)C)C(C)C)cc2[N+](=O)[O-])CC1 | 3%
COc1cccc(C(=O)OCC(=O)Nc2cc(C)c(C)cc2[N+](=O)[O-])c1 | 1%
CNc1ccc([N+](=O)[O-])cc1-c1nc2ccccc2[nH]c1=O | 32%[activator]
O=S(=O)(NCc1ccc(Cl)cc1)c1ccc(Cl)nc1 | 0%
CP(C)(=O)CCP(=O)(c1ccccc1)c1ccccc1 | 17%
O=C(Cc1ccc(S(=O)(=O)N2CCOCC2)s1)N1CCN(S(=O)(=O)c2cccc([N+](=O)[O-])c2)CC1 | 5%
O=C(CSc1ncnc2ccccc12)NCc1ccco1 | -12%
Cc1cccc(-n2ccnc2SCC(=O)Nc2ccc(F)cc2F)c1C | 8%
Cc1cc(Nc2ccccc2F)n2ncnc2n1 | -6%
Cc1ccc(C(=O)COC(=O)c2cc(-c3ccccc3)nc3ccccc23)cc1C | -3%
COc1ccc(S(=O)(=O)N2CCc3ccccc32)cc1[N+](=O)[O-] | 10%
COc1ccc(-c2nc3c(c(SCC(=O)Nc4ccccc4OC)n2)Cc2cccc(C)c2O3)cc1 | -8%
O=C(Nc1ccc(Cl)cc1-c1nc2ccccc2s1)c1ccco1 | -10%
CC(C)C[C@H](NC(=O)N1CC(=O)Nc2ccccc21)C(=O)N[C@H](Cc1ccccc1)C(=O)O | 0%
CCN(C(=O)CSc1cccc[n+]1[O-])c1ccccc1 | -9%
CC(C)COP(=O)(c1ccc(N(C)C)cc1)C(O)c1cccnc1 (centres undefined) | -15%
CCCc1nc2sc3c(=O)n(N)cnc3c2c2c1CCCC2 | -13%
CCOc1cccc2sc(NC(=O)CS(=O)(=O)c3ccc(C)cc3)nc12 | 16%
CCc1cc2cc3c(cc2nc1SCC(=O)Nc1nccs1)OCO3 | 4%
COc1ccc(OCc2nc(-c3ccc(OC)c(OC)c3)no2)cc1 | -12%
C[C@H](NC(=O)c1nc[nH]c1C(=O)NCCCCCNC(=O)OC(C)(C)C)c1ccccc1 | -19%
Cn1c(=O)c2c(-c3cccc(Br)c3)c(C#N)c(N)nc2n(C)c1=O | -13%
COc1ccc(NC(=O)c2ccc(C)cc2Cl)c([N+](=O)[O-])c1 | 7%
Cc1ccc(C(=O)Nc2ncc3c(n2)CC(c2ccco2)CC3=O)cc1 (centres undefined) | 9%
O=C(Nc1ncnc2sc3c(c12)CCCC3)c1ccncc1 | 13%
Cc1ccccc1NC(=O)c1nc[nH]c1C(=O)NCc1ccccc1 | 16%
CC(C)(C)C(=O)Cn1c(=N)n(Cc2ccccc2Cl)c2ccccc21 | 4%
NC(N)=N/N=C/c1ccc(Br)cc1 | -19%
CCOC(=O)c1cc2c(n(-c3ccc(Cl)cc3)c1=O)CCCC2=O | -20%
COc1ccc(CCN2C(=O)N(c3ccc(F)cc3)C(=O)C2CC(=O)Nc2ccc(F)c(F)c2)cc1 (centres undefined) | -11%
CCN(CC)CCCNC(=O)c1ccc2c(c1)sc1nc(-c3ccc(C)cc3)cn12 | -5%
Cc1ccc(SCCNC(=O)c2ccc(C)c(S(=O)(=O)Nc3cccc(C)c3)c2)cc1 | 18%
CC1CN(C(=S)NC(=O)c2ccccc2)CC(C)O1 (centres undefined) | -21%
C/C(Cl)=C/CSc1nnc2n(N)c(=O)c3ccccc3n12 | -18%
CS(=O)(=O)N1CCc2cc(S(=O)(=O)N3CCN(Cc4ccc5c(c4)OCO5)CC3)ccc21 | 10%
O=C(NCCN1CCNCC1)c1ccccc1O | 11%
CCOC(=O)/C=c1\s/c(=C\c2ccc3cc(OC)ccc3c2)c(=O)n1CC(=O)NCc1ccc2c(c1)OCO2 | -8%
Cn1c(=O)c2c(nc(SCc3ccc(C(=O)O)cc3)n2C)n(C)c1=O | -22%
COc1ccc([C@H]2CC(=O)C=C(c3ccc(-c4ccccc4)cc3)C2)cc1OC | -3%
O=C(Cn1cc(S(=O)(=O)Cc2ccccc2Cl)c2ccccc21)NCc1ccccc1Cl | 1%
COCc1c(C(=O)OCC(=O)N2c3ccccc3CC2C)oc2ccccc12 (centres undefined) | 11%
CN(C)CCCOC(=O)c1ccccc1 | -4%

(continued)
SMILES | VDR inh
Cc1cccc(C)c1NS(=O)(=O)c1c(C(=O)N2CCCCC2)c(C)n(C)c1C | -10%
CCCCOC(=O)CSc1nc2c(cc1C#N)C(=O)CC(C)(C)C2 | -5%
COC(=O)CN(c1ccccc1OC)S(=O)(=O)c1ccccc1 | 15%
CCc1nnc(NC(=O)c2cc(=O)c3cc(C)ccc3o2)s1 | 20%
O=C(Nc1ccccc1)c1ccc(N2CCN(c3ccccn3)CC2)c(S(=O)(=O)N2CCOCC2)c1 | 2%
COc1ccc(Nc2cc(C(=O)NCCCN3CCN(C)CC3)c3ccccc3n2)cc1OC | 3%
CC(C)CNC(=O)c1cccc(NC(=O)C2CCCO2)c1 (centres undefined) | -3%
CN1CCN(C(=S)c2cn(CCOc3ccccc3F)c3ccccc23)CC1 | -28%
Cc1cccc(NC(=O)CCC(=O)NCCO)c1 | 1%
CCN(CC)c1ccc(N=Cc2ccc([N+](=O)[O-])o2)cc1 | ?
CCOc1ccc(CN2CCN(Cc3cccc4c3OCO4)CC2CCO)cc1 (centres undefined) | 12%
COc1ccc(C(=O)NC2(C(F)(F)F)C(=O)Nc3c2c(=O)[nH]c(=O)n3CCc2ccc(OC)c(OC)c2)cc1 (centres undefined) | -9%&10%
COC(=O)c1sccc1NC(=O)Cn1nnc(-c2ccccc2C)n1 | 25%
CCc1ccc(NC(=O)CCc2nnc3n(C)c(=O)c4sccc4n23)cc1 | -4%
Cc1oc(-c2ccc(-c3ccccc3)cc2)nc1CN1CCN(CC(=O)N(C)C)CC1 | 1%
COc1cccc(CN(C)CC(=O)NCc2ccccc2Cl)c1OC | 6%
CC1CN(C(=O)c2cccc(S(=O)(=O)Nc3ccccc3Cl)c2)CC(C)O1 (centres undefined) | 12%
Cc1cc(OCC(=O)NCC2CCC(C(=O)O)CC2)c2c(C)c(Cc3ccccc3)c(=O)oc2c1 (centres undefined) | -28%
COc1cccc(CC(=O)n2nc(N)c3cc4ccc(OC)cc4nc32)c1 | -8%
CCN(C(=O)c1nn(C)c2c1CSc1ccccc1-2)c1cccc(C)c1 | -8%
Cc1ccc(C)c(OCc2nnc(N)s2)c1 | 0%
COc1ccc(Nc2oc(COc3cccc(C)c3)nc2C#N)cc1 | -11%
CC(C)NC(=O)NC(=O)COc1ccc(Br)cc1Br | -4%
COc1ccccc1CCNC(=O)c1ccc(NC(=O)N2CC(C)Sc3ccccc32)cc1 (centres undefined) | 8%
O=C(Nc1cccc(Cl)c1)c1cc2c(=O)[nH]c3ccccc3c2s1 | 1%
O=C1C2CCC(C(O)C2)N1Cc1ccccc1 (centres undefined) | 5%
CCCNC(=O)CCn1cc(-c2ccc(OC)cc2)nc1CCN | -5%
COc1ccc(CCC(=O)N2CCN(S(=O)(=O)c3cccs3)CC2)cc1 | 9%
c1ccc(-c2cnc(-c3cccnc3)o2)cc1 | 5%
O=C1NCCN(Cc2ccoc2)C1CC(=O)N(CCO)Cc1ccccc1 (centres undefined) | 11%
O=C(NCCCN1CCc2ccccc2C1)Nc1ccc(Cl)cc1 | -10%
O=[N+]([O-])c1cccc(Nc2nc(Cl)nc(Cl)n2)c1 | -23%
CC(C)c1c(C(=O)N/N=C/c2ccc(OCc3ccccc3)cc2)nnn1-c1nonc1N | -13%
Cn1cccc1C(=O)N1CCC2(CCCN(c3ccc(-c4ccccc4)cc3)C2)CC1 | ?
N#Cc1cc2c(=O)n3ccccc3nc2n(CCCn2ccnc2)c1=N | -9%
COCCN(C(=O)CSc1nnc(C)n1Cc1ccccc1)c1c(N)n(CC(C)C)c(=O)[nH]c1=O | -17%
COc1ccc(NC(=O)c2ccco2)cc1NC(=O)c1cccnc1 | 30%[activator]
O=C(CNC(=O)/C=C/c1ccco1)N=Nc1c(O)[nH]c2ccccc12 | -2%
Cn1c(=O)c2nc(SCc3ccccc3)n(C)c2n(C)c1=O | 1%
CC(C)(C)C(=O)NCCc1nc2ccccc2n1CCCCOc1ccccc1 | 0%

A different layout for some results above:
VDR inh,Molecule
0%,CC(C)(C)C(=O)NCCc1nc2ccccc2n1CCCCOc1ccccc1
1%,O=C(Nc1cccc(Cl)c1)c1cc2c(=O)[nH]c3ccccc3c2s1

Additional structures follow.
SMILES | VDR inh
O=C(/C=C/c1ccc(OC(F)F)cc1)Nc1cccc(S(=O)(=O)N2CCOCC2)c1 | 3%
Cc1c(C(=O)OC(C)CCN(C)C)oc2ccccc12 (centres undefined) | 3%
c1ccc(CSc2nnc(NC3=NCCCCC3)s2)cc1 | -10%
O=C(CCNC(=O)c1ccc([N+](=O)[O-])cc1)Nc1ccccc1N1CCCC1 | 2%
Cc1c(Cl)c(C(F)(F)F)nn1CC(=O)N1CCSCC1 | -7%
COc1ccc(C)cc1S(=O)(=O)N(CC(=O)Nc1cccc([N+](=O)[O-])c1)c1ccc(C)cc1 | -3%
CN(C(=O)COC(=O)c1ccc(Br)c([N+](=O)[O-])c1)c1c(N)n(Cc2ccccc2)c(=O)[nH]c1=O | -18%
CCOc1ccc(NC(=O)CC2C(=O)N(c3ccc(OC)cc3)C(=O)N2C2CCCCC2)cc1 (centres undefined) | -13%
OCCN(CCCn1c(-c2ccncc2)nc2ccccc21)c1nc(CN2CCCCC2)cs1 | 2%
NS(=O)(=O)c1ccc(N/N=C/c2ccc[nH]2)c([N+](=O)[O-])c1 | 0%
COc1ccc(NC(=O)CSc2nnnn2C2CCCCC2)c(OC)c1 | 14%
O=C(Cn1cc(C(=O)C(F)(F)F)c2ccccc21)NCc1ccco1 | -15%
CC(NC(=O)Nc1ccc(Br)cc1)C(C)(C)C (centres undefined) | -6%
CCc1cc(C(=O)NCC(c2ccc(OC)cc2)N2CCOCC2)sc1C (centres undefined) | -5%
O=C(CCc1nnc(CCCc2ccccc2)o1)NCCc1ccco1 | 16%
O=C(CCCn1c(SCC(=O)NCC2CCCO2)nc2ccccc2c1=O)NCc1ccccc1 (centres undefined) | 2%
c1cn(CCCNC2=NCCCCC2)cn1 | -10%
NC(=O)CSc1oc(-c2cccs2)nc1S(=O)(=O)c1ccccc1 | 2%
COC(=O)c1ccc(OCCN2CCCCCC2)cc1 | -4%
COCCCNC(=O)c1ccc(-c2csc(C)n2)cc1 | -5%
CC(OC(=O)C1CC(=O)N(Cc2ccccc2)C1)C(=O)Nc1ccc(F)cc1Cl (centres undefined) | 1%
Cc1ccc(S(=O)(=O)N2CCC(n3nnc4cc(C)ccc43)CC2)cc1 | 23%
CSCCCc1cn([C@@H](CO)C(=O)NCCCCCCCCCCC(=O)N2CCNCC2)nn1 | -13%
CCOC(=O)C(CO)(NC(C)=O)C(=O)OCC | -6%
O=C(N/N=C/c1cc([N+](=O)[O-])cc([N+](=O)[O-])c1O)/C(=C\c1cccs1)NC(=O)c1ccccc1 | -7%
Cc1ccc(C(=O)Nc2ccccc2)cc1S(=O)(=O)Nc1ccc(Br)cc1 | -10%
